VACV mCherry inh: vaccinia inhibition (mCherry reporter); Vaccinia virus mCherry reporter infection, fluorescence; about a quarter of the inactives have no number; Potency, µM (highest dose often 36.5 µM), for inactives: at the top dose activity change, negative = inhibition, hits mostly inhibitors; 310,000 tested, 0.63% active; AID 720579; active = well fitted inhibition curve with a large enough effect; inconclusive = small, poorly fitted or top-dose-only effect; inactive = no such curve, though single readings can be large or run the other way; tested in A549 cells; further: nearly all actives have a fitted effect of over 35% in size; inactives centre near -10
VACV Venus inh: vaccinia inhibition (Venus reporter) | Vaccinia virus Venus reporter expression, fluorescence | Potency, µM (titrated, usually from 36.5 µM), for inactives: at the top dose activity change, negative = inhibition, usual class: inhibitors | 330,000 tested, 0.46% active; active means well fitted inhibition curve with a large enough effect; inconclusive means small, poorly fitted or top-dose-only effect; inactive means no such curve, though single readings can be large or run the other way; tested in A549 cells; further: nearly all actives have a fitted effect of over 30% in size; inactives centre near -10
Starred values were filed as active, the others as inactive; i = inactive; ? = inconclusive; · = not tested or not shown; & = joins results of further samples; [ ] = remark or other dose. On the % scale 0 is the no-effect control and ±100 the full control effect; potency means the concentration at half of the fitted maximal effect.

SMILES	VACV mCherry inh	VACV Venus inh
CCOC(=O)c1cc(-c2nnc(-c3cc(OC)c(OC)c(OC)c3)o2)c(C)nc1C	-9%	-7%
Cc1cc(C)c2cc(CN(CCO)C(=O)NC3CCCCC3)c(=O)[nH]c2c1	i[7.34 µM]	-20%[7.34 µM]
C=C(C)C(=O)NNc1ccccc1	-11%	4%
Cc1ccc2[nH]c(=O)c(CNS(=O)(=O)c3ccccc3)c(-c3ccccc3)c2c1	-2%	-18%
CCOC(=O)C1(Cc2cccc(F)c2)CCN(CC2CC2)CC1	i	-9%
CCN(CC)c1ccc(S(=O)(=O)N2CCOCC2)cc1NC(=O)CN1CCc2ccccc2C1	-2%	-8%
CCn1c(SCC(=O)NCc2ccco2)nnc1-c1ccc(N(C)C)cc1	-21%	-16%
COc1ccccc1N1CCN(C(=O)c2c(-c3ccccc3Cl)noc2C)CC1	·	?
COc1ccc(C(=O)NC(C(=O)NCC2CCCO2)C(C)C)cc1 (configuration not stated)	-3%	-13%
Cc1ccc(SC(C)C(=O)Nc2ccccc2C(=O)N2CCOCC2)cc1 (configuration not stated)	i	-11%
Cc1c(-c2ccc(Br)cc2)[n+](=O)c2c(n1[O-])CCCC2	-2%	-2%
CC(C)N1CCCC(C)(C(=O)Nc2ccc3c(c2)OCO3)C1 (configuration not stated)	10%	-5%
COC(=O)C1CCN(c2cc(=O)n(C3CCCCC3)c(=O)[nH]2)CC1	-15%	1%
O=S(=O)(c1cccs1)N1CCC2(CC1)OCCO2	i	-5%
CCOc1ccc2nc(N(Cc3cccnc3)C(=O)c3ccco3)sc2c1	i	-6%
CC1=C(C)C(=O)N(c2ccccn2)C1=O	·	-21%
Cc1cc([N+](=O)[O-])ccc1NC(=O)c1ccc(NC(=O)C(C)C)cc1	-11%	-28%
CCc1nc2ccccc2[nH]1	-7%	-4%
CC(C)=N/N=C(\c1cccc([N+](=O)[O-])c1)C12CN3CN(CN(C3)C1)C2	-12%	-3%
Cc1ccc(C(=O)Nc2ccc(-n3ccnc3P(=O)(O)c3ccccc3)cc2)cc1	·	-17%
CCOC(=O)c1c(NC(=O)CSc2nnnn2-c2ccc3c(c2)OCCO3)sc(C)c1C	-7%	1%
c1ccc2c(c1)nc(N1CCOCC1)c1nncn12	·	-16%
C[C@@H]1CCCCO[C@@H](CN(C)Cc2ccccc2)[C@@H](C)CN([C@H](C)CO)C(=O)c2cc(N(C)C)ccc2O1	?	-18%
CCN1C(=O)N[C@@H](c2ccccc2)[C@H](C(=O)OC)[C@H]1C	-5%	-12%
O=C(NNC(=O)c1cc(-c2ccncc2)nc2ccccc12)Nc1ccc(F)cc1	0%	-4%
C/C(=N\NC(=O)CCCC(=O)O)c1c(-c2ccccc2)c2cc(Cl)ccc2[nH]c1=O	i	3%
Cc1nnc2ccc(-c3cccc(NS(C)(=O)=O)c3)nn12	i	-6%
O=C(NN1CCCCC1)c1ccccc1	i	-9%
CC(NC(=O)c1ccc(Br)o1)c1ccccc1 (configuration not stated)	-5%	-8%
CCOc1ccc(NC(=O)c2cc(S(=O)(=O)N3CCOCC3)cn2C)cc1	-23%	-15%
COc1ccc(S(=O)(=O)NC2CCCC2)cc1NC(C)=O	-19%	-13%
COc1ccc(Cn2c(=O)[nH]c3cc(C(=O)NCCCOC(C)C)ccc3c2=O)cc1	-27%	-4%
Cc1ccc(N=C(NOC(=O)c2ccccc2)c2nonc2N)c(C)c1	·	-20%
CSc1nc2ccc(NC(=O)c3c(F)cccc3F)cc2s1	?	?
Cc1ccn2c(Nc3ccccc3C)c(-c3ccncc3)nc2c1	?	-24%&-20%
COc1ccc(NS(=O)(=O)c2cccc(C(=O)N/N=C(\C)c3cccnc3)c2)cc1	i	-9%
O=[N+]([O-])c1ccc(NN=Cc2ccc3c(c2)OCO3)nc1	-21%	-8%
O=C(COC(=O)c1cccc(C(=O)OCC(=O)c2ccc(Br)cc2)n1)c1ccc(Br)cc1	-1%	5%
Cc1ccsc1/C=N/N=C1\C(=O)Nc2ccccc21	-2%	-17%
CN(C)c1ccc(NS(=O)(=O)c2cccc(Cl)c2)cc1	i	-12%

Pulled by compound from the entries so far (6):
SMILES	VACV mCherry inh	VACV Venus inh
COc1ccc(NS(=O)(=O)c2cccc(C(=O)N/N=C(\C)c3cccnc3)c2)cc1	i	-9%
CSc1nc2ccc(NC(=O)c3c(F)cccc3F)cc2s1	?	?
O=C(COC(=O)c1cccc(C(=O)OCC(=O)c2ccc(Br)cc2)n1)c1ccc(Br)cc1	-1%	5%
Cc1ccsc1/C=N/N=C1\C(=O)Nc2ccccc21	-2%	-17%
Cc1ccc(N=C(NOC(=O)c2ccccc2)c2nonc2N)c(C)c1	·	-20%
O=[N+]([O-])c1ccc(NN=Cc2ccc3c(c2)OCO3)nc1	-21%	-8%

Further compounds follow:
SMILES	VACV mCherry inh	VACV Venus inh
COc1ccccc1-c1c(C#N)c(N)nc2c1CCc1ccccc1-2	?	?
Cc1cc2c(cc1C)NC(c1ccccn1)C1=C(CC(C)(C)CC1=O)N2 (configuration not stated)	·	-20%
Cc1ccc(NC(=O)COC(=O)c2ccc(NC(=O)CC#N)cc2)cc1S(=O)(=O)N1CCOCC1	-15%	1%
O=C(Nc1ccc(Cc2ccncc2)cc1)C1CCC(N2C(=O)C3C4C=CC(C4)C3C2=O)CC1 (configuration not stated)	?	38%[activator]
COc1ccc(COc2ccccc2C(=O)NCc2ccccc2)cc1F	?	-28%
COc1ccccc1CCn1cnc(-c2ccc(Br)cc2)c1C(C)C	-10%	?
Cc1ccc(S(=O)(=O)c2ccc(Cl)cc2)cc1S(=O)(=O)NC(C(=O)O)C(C)C (configuration not stated)	-11%	-10%
CCN1C(=S)N[C@@H](c2ccccc2)C(C(=O)OC)=C1C	-21%	-14%
Cc1ccc(C)c(N2CC(C(=O)Nc3nccs3)CC2=O)c1 (configuration not stated)	-15%	-1%
NC(=O)c1cc(-c2csc(-c3cccnc3)n2)ccc1O	-24%	-15%
CCOC(=O)c1c(C)[nH]c(C)c1C(=O)COC(=O)c1cccnc1Cl	-6%	-6%
COc1ccc(OCC(=O)N2CCN(c3cccc(Cl)c3)CC2)cc1	-23%	-9%
O=C(O)CCCCCCCCCCCNC(=O)NC12CC3CC(CC(C3)C1)C2	-7%	-13%
CN(C)CCCN(C(=O)c1sc2ccccc2c1Cl)c1nc2c(F)cccc2s1	-16%	-5%
COc1ccccc1CNC(=O)C1CCN(S(=O)(=O)c2ccc3[nH]c(=O)ccc3c2)CC1	7%	1%
CCCCC(CC)CNC(=O)c1cc2ccccc2c(=O)o1 (configuration not stated)	-6%	-1%
Cc1cc(C(F)(F)F)nn1CC(=O)N(C)C1CCCCC1	-15%[1.46 µM]	-20%
COc1ccc(-n2cc([N+](=O)[O-])c(=O)c3ccc(Cl)cc32)cc1	4%[7.34 µM]	3%[7.34 µM]
Cc1cc(-c2ccccc2)nc(N(C)NC(=O)c2ccc(Cl)cc2)c1S(C)(=O)=O	·	-4%
CCOc1ccccc1NC(=O)c1sc2nc(C)nc(N3CCOCC3)c2c1C	-12%	1%
COC(=O)CCn1c(C)cc(C(=O)COc2ccccc2C(N)=O)c1C	-18%	-15%
COC(=O)c1cc2cc(OC)ccc2n1C	-7%	-11%
CCN(CC)S(=O)(=O)c1ccc(N2CCN(c3ccccc3OC)CC2)c(N)c1	?	-15%
COC(=O)/C=C/C(=O)N1CCN(c2ccccc2)CC1	i	-2%
CC(C)(C)NC(=O)C1C(c2ccc(C(F)(F)F)cc2)=Nc2ccccc2N1C(=O)c1cccc(C(F)(F)F)c1 (configuration not stated)	?	-23%
Cc1ccc(NC(=O)CCN2C(=O)CSC2=O)cc1	-3%[1.46 µM]	-4%
O=C(N/N=C\c1c(O)ccc2ccccc12)c1ccc(Cn2cccn2)o1	4.5µM*	?
Cc1ccc(C2=[N+]([O-])C(C)(C)N(O)C2(C)C)cc1	-12%	-7%
CCCCc1ccc(NC(=O)CSc2nc(=O)n(CCN3CCOCC3)c3c2CCC3)cc1	i	-15%
Cn1c(=NC(=O)CS(=O)(=O)c2ccccc2)sc2cc(F)ccc21	?	-15%

The last 5 entries of the part before lead into the next:
SMILES	VACV mCherry inh	VACV Venus inh
Cc1ccc(NC(=O)CCN2C(=O)CSC2=O)cc1	-3%[1.46 µM]	-4%
O=C(N/N=C\c1c(O)ccc2ccccc12)c1ccc(Cn2cccn2)o1	4.5µM*	?
Cc1ccc(C2=[N+]([O-])C(C)(C)N(O)C2(C)C)cc1	-12%	-7%
CCCCc1ccc(NC(=O)CSc2nc(=O)n(CCN3CCOCC3)c3c2CCC3)cc1	i	-15%
Cn1c(=NC(=O)CS(=O)(=O)c2ccccc2)sc2cc(F)ccc21	?	-15%
Cc1ccc(NS(=O)(=O)c2ccc3c(c2)oc(=O)n3C)cc1	i	-23%
O=C(c1[nH]c(C(F)(F)F)nc1-c1ccccc1)N1CCN(CCN2CCOCC2)CC1	8%	1%
COc1ccc(CC(=O)NCc2ccc3c(c2)CCN3C(C)=O)cc1	-14%	-10%
O=C(O)c1cccc(S(=O)(=O)Nc2ccc(O)c(Sc3nc4ccccc4s3)c2)c1	-1%	-13%
O=C(CNC(=O)Cn1cnc2sc3c(c2c1=O)CCCC3)NCc1ccccn1	i	-15%
O=C(Nn1cnnc1)c1csc2ccccc12	i	-12%
O=C(NCCCN1CCCC1=O)C(=O)NCC1OCCN1S(=O)(=O)c1ccc(Cl)cc1 (configuration not stated)	i	-17%
Cc1ccccc1OCCn1cc(C(=O)O)c2ccccc21	-6%	-17%
COc1ccc(CCNC2=CC(=O)N(c3ccc(F)cc3)C2=O)cc1	i	-7%
C[C@@H]1COc2cccc(N3CCC[C@@H]3CO)c2S(=O)(=O)N1	-10%	-5%

Given as labelled records: entries from further up
> O=C(NCCCN1CCCC1=O)C(=O)NCC1OCCN1S(=O)(=O)c1ccc(Cl)cc1 (configuration not stated)
  VACV mCherry inh = i
  VACV Venus inh = -17%

> Cc1ccccc1OCCn1cc(C(=O)O)c2ccccc21
  VACV mCherry inh = -6%
  VACV Venus inh = -17%

(continued)
SMILES	VACV mCherry inh	VACV Venus inh
O=C(O)COc1cccc(NC(=O)c2ccccc2)c1	-9%	-5%
CC(C)(C)NC(=O)COc1ccc(CNCc2ccccn2)cc1	-10%	-10%
COc1ccc(NC(=O)CSc2nnc(NC(=O)Nc3ccccc3)s2)c(OC)c1	-6%[7.34 µM]	-5%[7.34 µM]
COc1ccc(N/N=C(\C#N)C(N)=O)cc1	-7%	4%
CCN(Cc1ccccc1)C(c1cc2cc(C)cc(C)c2[nH]c1=O)c1nnnn1CCOC (configuration not stated)	·	-13%
COc1ccc(C2=NOC(C)(c3nnc(-c4ccccc4)o3)C2)cc1 (configuration not stated)	-11%	-11%
CCOc1ccc(NC(=O)c2ccc(CN3C(=O)C(C)=C(c4ccc(C)cc4)S3(=O)=O)cc2)cc1	-15%	-16%
Cc1ccc(CN(CC(=O)NC(C)(C)C)C(=O)CNC(=O)c2cccs2)cc1	-12%	-7%
CC(=O)Nc1ccc(Sc2ccccc2C(=O)N2CCCC2)cn1	-11%	-11%
O=C(CN1CCN(S(=O)(=O)c2ccccc2F)CC1)N1CCc2ccccc2C1	-1%	-6%
CC(C)c1nnc(NC(=O)CN2C(=O)c3ccccc3C2=O)s1	-8%	-9%
CCOc1ccc(C(=O)NCCc2csc(-c3ccc(C(F)(F)F)cc3)n2)cc1OCC	-16%	-15%
Cc1onc(-c2c(F)cccc2Cl)c1C(O)c1ccc(F)cc1 (configuration not stated)	-12%	-6%
O=C(c1cnn(-c2ccccc2)c1)c1cc(Br)ccc1O	-2%	-5%
O=[N+]([O-])c1cc(CN2CCN(c3ccccc3)CC2)c(O)c2ncccc12	?	-20%
CCN(CC(=O)Nc1ccc(NC(C)=O)cc1)C(=O)C12CC3CC(CC(Cl)(C3)C1)C2	-3%	-9%
CCOC(=O)C(NC(C)=O)C(=O)Nc1ccc(C(C)(C)C)cc1 (configuration not stated)	i	2%
Clc1nc(Nc2ccc(N3CCOCC3)cc2)c2ccccc2n1	-17%	-16%
O/N=C(/C[n+]1csc2ccccc21)c1ccccc1	-13%	-4%
CC(C)c1ccc(NC(=O)CSc2ncccc2C(=O)Oc2cccc([N+](=O)[O-])c2)cc1	-11%	-14%
COC(=O)C1=NNCC12CC(=O)N(c1ccc(Br)cc1)C2=O (configuration not stated)	-11%	-9%
CCOc1ccccc1NC(=O)[C@@H](NC(=O)c1cccc(S(=O)(=O)N2CCOCC2)c1)C(C)C	i	-10%
Cc1onc(-c2c(F)cccc2Cl)c1C(=O)Nc1cccc(Cn2cccn2)c1	-8%	-7%
O=C(c1ccccc1Cl)N1c2ncnn2C2(CCCCC2)[C@@H]2CCCC[C@@H]21	-3%	-4%
CC(=O)OC(C(=O)NC1CCCCC1)c1ccccc1 (configuration not stated)	-21%	-14%
CCOc1ccc(CCNc2nc3ccc(C)cc3n3cnnc23)cc1OCC	-7%	-22%
O=C(N[C@@H]1c2ccccc2CC[C@@H]1OCc1ccccc1)c1ccc(-c2ccccc2)cc1	-2%	-11%
CCc1cccc(CC)c1NC(=O)CCS(=O)(=O)c1ccc(Br)cc1	-3%	-10%
C/C(=N/OCO/N=C(\C)c1ccccc1)c1ccccc1	-7%	8%
N/C(=N\OC(=O)Cc1ccc([N+](=O)[O-])cc1)c1cccc(Br)c1	9%	5%
NC(=S)NN=C1c2ccccc2-c2c(F)c(F)c(F)c(F)c21	-9%	-24%
O=C(Nc1ccccc1)c1ccccc1CCc1ccccc1	-9%	-1%
COC(=O)c1ccc(CSc2nnc(NC(=O)C3CCCO3)s2)cc1 (configuration not stated)	·	-14%

Screening data: PubChem BioAssay, National Center for Advancing Translational Sciences (NCATS)

Compounds were not picked by outcome; about 0.88% have a hit in one of these screens.
